Screening data deposited in PubChem BioAssay by National Center for Advancing Translational Sciences (NCATS).
Menin-MLL FL inh: menin-MLL binding inhibition, fluorescein peptide; Fluorescence polarization, fluorescein-MLL peptide displacement from menin; FP activity change, % at 61.4 µM; 290,000 tested, under 10 active; inconclusive = falling polarisation curve, or a change in total fluorescence; inactive = total fluorescence flat and polarisation flat or rising; no compound was filed as active; the % refers to the polarisation; negative = inhibition;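 also: % of control where 0% means no effect; inhibitors lower the polarisation; unlabelled MLL peptide was the positive control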
CtBP-E1A blk: blocks the CtBP interaction with E1A. hit rate 0.49% among 340,000. activity change, % (concentration not given with the values). AlphaScreen GST-E1A/His-CtBP binding, 1536-well; hits give low values; control for the full effect not named in the record; in the data active means activity change below about -65%; inconclusive means about -30% to -65%; inactive means above about -30%; also: % is scaled to controls: 0 for no effect and ±100 for the full control effect
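Homogeneous bead-based format: GST-tagged E1A captured on glutathione donor beads, His-tagged CtBP on nickel acceptor beads; compounds precede bead addition by 2 h at 37 °C.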
Sfp inh: inhibitors of Bacillus subtilis Sfp phosphopantetheinyl transferase. Biochemical Sfp PPTase activity, qHTS. Q9F4F7. Potency, µM, inactives show max response, negative = inhibition, actives largely listed as inhibitors. hit rate 3.5% among 310,000; active = well fitted inhibition curve with a large enough effect; inconclusive = small, poorly fitted or top-dose-only effect, or another doubt; inactive = no such curve, though single readings can be large or run the other way;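 also: the enzyme is Sfp with the accession as filed and its product quenches rhodamine fluorescence; potency is read from the fitted curve at half-maximal effect; 0% = enzyme reaction without inhibitor and -100% = no enzyme wells; top concentration of the series not given in the record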
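Sfp 15 nM + cpd, 15 min RT; start w/ rhodamine-CoA 5 uM, BHQ-2-YbbR 12.5 uM (final); 50 mM Hepes pH 7.6, 10 mM MgCl2, 0.01% NP-40, 0.01% BSA; read 525/598 nm at 0 and 30 min.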
TRPV1 PAM: potentiators of human vanilloid receptor 1 (TRPV1) | Q8NER1 | potentiation, % at 8.33 µM | AID 540277 | hit rate 0.02% among 320,000 | TRPV1-expressing cells, Fluo-8 calcium influx, capsaicin EC20 potentiation; host cell line not named in the record; control for the full effect not named in the record; active means potentiation above 80%; inconclusive means 30% to 80%; inactive means below 30%; also: 0% is about no effect
Target sequence (Q8NER1 whole entry, looked up): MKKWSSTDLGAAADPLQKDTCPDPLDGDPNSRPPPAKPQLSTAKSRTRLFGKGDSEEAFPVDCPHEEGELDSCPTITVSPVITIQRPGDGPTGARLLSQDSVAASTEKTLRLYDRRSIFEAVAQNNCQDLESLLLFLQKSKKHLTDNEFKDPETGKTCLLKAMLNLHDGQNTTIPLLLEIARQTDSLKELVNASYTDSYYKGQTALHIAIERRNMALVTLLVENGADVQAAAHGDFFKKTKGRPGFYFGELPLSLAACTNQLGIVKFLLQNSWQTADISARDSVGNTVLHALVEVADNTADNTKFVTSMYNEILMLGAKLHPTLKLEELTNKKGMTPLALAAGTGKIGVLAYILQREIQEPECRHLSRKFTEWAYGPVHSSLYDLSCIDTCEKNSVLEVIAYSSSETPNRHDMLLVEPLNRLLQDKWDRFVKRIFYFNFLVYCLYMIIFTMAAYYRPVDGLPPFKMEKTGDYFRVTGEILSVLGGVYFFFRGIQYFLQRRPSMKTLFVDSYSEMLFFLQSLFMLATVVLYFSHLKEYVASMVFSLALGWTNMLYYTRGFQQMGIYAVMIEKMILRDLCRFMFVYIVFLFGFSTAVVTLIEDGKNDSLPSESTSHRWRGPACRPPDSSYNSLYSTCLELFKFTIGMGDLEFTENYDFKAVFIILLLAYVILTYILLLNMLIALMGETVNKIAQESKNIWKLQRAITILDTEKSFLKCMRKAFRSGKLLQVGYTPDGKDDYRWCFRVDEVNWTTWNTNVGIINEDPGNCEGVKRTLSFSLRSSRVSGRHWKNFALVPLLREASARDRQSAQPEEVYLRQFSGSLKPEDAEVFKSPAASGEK
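Cells expressing TRPV1 were dye-loaded with Fluo-8 and read kinetically: 10 s baseline, 3 min after compound (agonist portion), then 2 min after EC20 capsaicin (allosteric enhancer portion). Calcium-bound dye fluorescence at 480/520 nm.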
ClpP mod: qHTS Assay for Activators of ClpP; ATP-dependent Clp protease proteolytic subunit (Bacillus subtilis (strain 168)), P80244; Potency, µM (highest dose often 57.5 µM), inactives show at the top dose activity change, negative = active; hit rate 1.9% among 340,000; AID 651965, 2013; purified B. subtilis ClpP, FRET peptide cleavage, 20 min; active = well fitted falling curve with a large enough effect; inconclusive = small, poorly fitted or top-dose-only effect; inactive = no such curve, though single readings can be large or run the other way; also: potency is read from the fitted curve at half-maximal effect; the source files actives as falling curves though it sought activators and does not explain the sign; nearly all actives have a fitted effect of over 65% in size; many hits overshoot -100%
Target sequence (P80244 whole entry, looked up): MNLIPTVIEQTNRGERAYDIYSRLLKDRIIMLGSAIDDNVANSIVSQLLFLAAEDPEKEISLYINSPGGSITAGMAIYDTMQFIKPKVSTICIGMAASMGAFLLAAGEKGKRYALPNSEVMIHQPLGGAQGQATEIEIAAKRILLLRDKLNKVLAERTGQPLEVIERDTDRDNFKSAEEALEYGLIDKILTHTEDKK
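Buffer: 100 mM Tris/HCl pH8, 100 mM KCl, 0.05% low protease BSA, 2.5% glycerol, 0.01% Tween-20. ClpP 10 microg/mL final; 20 min RT; delta FRET normalized to ADEP and DMSO controls.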
gsp agonist: agonists of gsp mutant (McCune-Albright syndrome) | gsp mutant cells, cAMP HTRF, 30 min; control for the full effect not named in the record | Potency, µM (titrated, usually from 76.9 µM), without a hit: top-dose activation (cAMP increase), usual class: activators | hit rate 0.13% among 340,000; active = well fitted activation curve with a large enough effect; inconclusive = small, poorly fitted or top-dose-only effect, or another doubt; inactive = no such curve, though single readings can be large or run the other way; cell line not stated here;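 also: phosphodiesterase inhibitor Ro 20-1724 added with compounds to block cAMP breakdown; potency is read from the fitted curve at half-maximal effect; nearly all actives have a fitted effect of over 60% in size; about a fifth of the inactives were tested at one dose only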
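Cells in DMEM/10% FBS with G418 were pretreated with compounds in DMSO plus […] (300 uM stock) for 30 min at 37C. cAMP was measured by HTRF (cAMP-d2 plus anti-cAMP antibody-K) after 30 min at room temperature.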
gsp antag: gsp mutant antagonism; gsp-mutant cells, cAMP HTRF, 30 min; control for the full effect not named in the record; Potency, µM (highest dose often 76.9 µM), inactives show top-dose activity change, negative = inhibition, usual class: inhibitors; hit rate 0.4% among 340,000; active = falling curve of any shape with a large fitted effect; inconclusive = falling curve, mostly with a smaller effect; inactive = flat or rising curve; cell line not stated here;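 also: intracellular cAMP measured with PDE inhibitor Ro 20-1724 present during compound exposure; potency is read from the fitted curve at half-maximal effect; % is scaled to controls: 0 for no effect and ±100 for the full control effect; nearly all actives have a fitted effect of over 65% in size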
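G418-selected cells were plated in DMEM/10% FBS for 16-24 h at 37C, then treated with compounds plus the PDE inhibitor […] (300 uM solution added) for 30 min at 37C. Intracellular cAMP was measured by HTRF after 30 min lysis at room temperature.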
The depositor's hits bear a star; u = inconclusive; x = no result given; [ ] = another dose, or the depositor's remark.

item	Molecule	gsp antag	gsp agonist	Sfp inh	CtBP-E1A blk	Menin-MLL FL inh	TRPV1 PAM	ClpP mod
1	CC(C)C(=O)NC(=S)Nc1nnn(C)n1	-12%	u	-90%	4	5.4	8	-2.6%
2	COc1cccc(-c2cc(C(F)(F)F)n3nc(C(=O)N4CCCCC4c4cccnc4)cc3n2)c1 (centres undefined)	-49%	9%[15.4 µM]	-28%	-2	-0.7	u	x
3	O=C(Nc1ccc(Cl)c(C(F)(F)F)c1)C(=O)N1CCCCC1	1%	7%	6%	18	1.9	-4	-2.0%
4	COc1ccc(OC)c(Nc2cc(-c3ccccc3)nc(N)n2)c1	19%	44%	-15%	-18	0.7	-1	-3.0%
5	CCn1cc(CN2CCCC(C(=O)Nc3cccc(-c4cc5ccccc5[nH]4)c3)C2)cn1 (centres undefined)	3%	1%	1%	0	-9.3	14	x
6	CCn1cnc2cc(NS(=O)(=O)c3ccc(OC)c(OC)c3)ccc21	4%	21%	5%	2	-2.8	-3	-1.3%
7	CCOC(=O)C(NC(=O)c1cccc(Cl)c1)(OCc1ccccc1)C(F)(F)F (centres undefined)	-35%	-13%[15.4 µM]	25%	-3	2.2	-7	1.0%
8	NC(=O)c1ccc(NC(=O)CN2CCN(c3ccccc3)CC2)cc1	3%	17%	3%	x	-3.4	7	-1.1%
9	COC(=O)C1=C(N)Oc2cc(C)n(CCc3ccccc3)c(=O)c2C1c1cccnc1 (centres undefined)	5%	-25%	5%	0	8.1	-13	-0.6%
10	COc1ccc2nc(C)cc(N3CCC(C(N)=O)CC3)c2c1	1%	0%[15.4 µM]	-7%	-1	-1.4	-25	x
11	CN1C(=O)CC(P(=O)(c2ccccc2)c2ccccc2)N(C)C1=O (centres undefined)	7%	-32%[inhibitor]	9%	-3	-4.0	-5	-2.8%
12	C/C(CC(=O)Nc1cccc(Cl)c1Cl)=N\NC(=O)c1ccccc1Br	11%	-17%[15.4 µM]	8%	-6	-5.7	2	-0.4%
13	CCOC(=O)C1=C(CS(=O)(=O)c2ccc(C)cc2)NC(=O)NC1c1cc(OC)c(OC)c(OC)c1 (centres undefined)	2%	-1%	-6%	-15	-3.3	16	x
14	Cc1ccc(S(=O)(=O)N2CCOC23CCN(C(=O)c2ccc(Cl)cc2Cl)CC3)cc1	-5%	-5%	u	x	-4.8	11	0.4%
15	O=C(COC(=O)c1cc(=O)[nH]c2ccccc12)NC1CCCC1	3%	-8%	1%	1	1.8	3	x
16	O=C(COC(=O)C1(c2ccccc2F)CCCC1)N1CCOCC1	-14%	u	17%	-1	3.8	-7	2.5%
17	O=[N+]([O-])c1ccc2nonc2c1Nc1cccc(F)c1	8%	-2%	7%	-9	-12	24	-2.5%
18	CCCCN(C)Cc1c(O)ccc2c(-c3ccccc3)cc(=O)oc12	9%	u	12%	5	0.0	-4	-5.4%
19	CCCCOC(=O)c1ccc(NC(=O)COC(=O)CSc2nc(C)cc(C)n2)cc1	-2%	-23%	-9%	6	3.6	-2	-0.2%
20	COc1ccnc(N=CNOCc2ccc(C)cc2)c1C#N	5%	-16%	11%	3	2.1	-6	1.2%
21	CCOC(=O)c1sc(NC(=O)c2c(C)nn(Cc3ccccc3)c2C)cc1C	u	-31%[inhibitor]	-5%	-9	-0.8	19	-23%
22	COc1ccc(CNCC(=O)Nc2cc(OC)cc(OC)c2)cc1	2%	u	-25%	x	u	-23	-2.9%
23	Cc1ccc(OCc2cc(C(=O)N3CCc4sccc4C3)no2)cc1C	-15%	-27%[15.4 µM]	-4%	7	x	-10	-1.5%
24	CCCCn1c(N)c(N(CCOC)C(=O)CN2c3ccccc3CC2C)c(=O)[nH]c1=O (centres undefined)	x	14%[15.4 µM]	19%	0	u	-6	x
25	COc1ccc(S(=O)(=O)Nc2cc(C)c(O)cc2C(C)C)cc1	3%	-48%[inhibitor]	1%	-1	3.7	15	-2.5%
26	O=c1[nH]c(=O)n(Cc2ccco2)c2c1C(C(F)(F)F)(C(F)(F)F)N=C(Cc1ccccc1)N2	-8%	-36%[inhibitor]	0%	2	9.5	15	-9.4%
27	CCOC(=O)c1ccc(NC(=O)C2CC3CCC2C3)cc1 (centres undefined)	-19%	-4%[15.4 µM]	x	5	x	x	x
28	COc1ccccc1-c1cc(C(=O)NC(C)c2ccccc2)no1 (centres undefined)	-2%	-91%[inhibitor]	-11%	6	-0.9	-12	u
29	CCCCn1c(N)c(N(CC)C(=O)COc2ccc(C#N)cc2)c(=O)[nH]c1=O	1%	27%	x	4	x	x	x
30	CCOc1ccc(/C=C/C(=O)Nc2ccc(C(N)=O)cc2)cc1OC	-2%	-34%[inhibitor]	-5%	-8	4.0	-4	35%
31	O=S(=O)(c1ccc(Oc2ccccc2)cc1)N1CCOCC1	-5%	3%	-3%	7	-0.3	-26	-1.8%
32	COc1cccc(-c2nnc(-c3ccco3)o2)c1	-5%	11%[15.4 µM]	6%	0	8.7	1	-0.6%
33	Cc1cc(C)cc(NC(=O)N2CCc3ccccc3C2)c1	-8%	29%	-4%	8	-4.7	-15	0.5%
34	CCc1cc(C(=O)Cc2ccccn2)c(O)cc1O	3%	-16%	-3%	6	-0.2	-7	x
35	c1ccc(-c2nn3nnnc3c3ccccc23)cc1	-14%	-34%[inhibitor]	-5%	1	2.0	4	-2.2%
36	Cc1nc2cc(NC(=O)N3CCC(c4ccccc4)C3)ccc2n1C (centres undefined)	0%	3%	16%	8	2.3	4	-1.5%
37	N#Cc1ccc(-c2ccc(F)cc2)nc1Sc1ccccc1	3%	u	13%	7	-0.8	-1	-14%
38	CCCc1cc(C(=O)N2CCCC(Nc3ccc(C)c(C)c3)C2)n(C)n1 (centres undefined)	-7%	-12%[15.4 µM]	5%	-11	1.0	-10	-1.2%
39	C/C(=N\OCC(=O)Nc1c(C)cc(C)cc1C)c1ccc2c(c1)OCCO2	-1%	10%	-3%	10	-2.4	-15	-1.8%
40	Cc1c(C(=O)CN2CCCC(C)(C)C2)c2ccccc2n1C	-2%	-24%	4%	x	3.4	-6	-0.3%
41	CCN(CC(=O)Nc1c(F)cccc1F)C(=O)CNC(=O)c1ccc(Br)o1	13%	9%	x	18	x	0	-0.8%
42	CN(c1ccccc1C(=O)N1CCN(c2ccccc2F)CC1)S(=O)(=O)c1ccccc1	1%	-17%	3%	-12	x	-1	-9.5%
43	COc1ccc(CCC(=O)NCc2ccco2)cc1	9%	2%	-11%	0	5.9	-3	1.8%
44	COc1ccc2c(c1)-c1nc(/N=C/c3c(O)ccc4ccccc34)sc1CC2	4%	2%	-26%	-10	0.2	11	-14%
45	NS(=O)(=O)c1ccc(CCNC(=O)c2ccccc2Cc2ccccc2)cc1	-11%	5%	-6%	8	x	-2	-1.0%
46	Cc1nn(CCc2nn[nH]n2)c2nc(C(F)(F)F)cc(C(F)(F)F)c12	-6%	-3%	9%	5	0.8	3	10µM*
47	CCc1ccc(CN(C)CC(=O)Nc2ccc3c(c2)CCC3)cc1	1%	-4%	-21%	1	-0.3	-19	x
48	O=C(C1CCN(S(=O)(=O)c2cccc3nsnc23)CC1)N1CCc2ccccc21	-24%	9%	3%	-7	4.1	x	0.1%
49	COc1ccc(CC(=O)N/N=C/c2cc(Br)cs2)cc1OC	-17%	13%	22%	x	0.4	-14	-0.7%
50	Cc1nn(-c2ccccc2)c(Cl)c1C(=O)N(C)CC(=O)Nc1cccc(F)c1	1%	-9%[15.4 µM]	x	4	x	25	x
51	O=[N+]([O-])c1ccc(-c2nc(NCC3CCCO3)c3ccccc3n2)cc1 (centres undefined)	-34%	8%[15.4 µM]	7%	2	-1.5	2	-0.8%
52	COCCNc1ccnc2c(Cl)cccc12	9%	-15%	-1%	5	9.4	13	x
53	COc1cccc(CNC(=O)CN(C)S(=O)(=O)c2ccc(Br)s2)c1	2%	2%	20%	5	0.9	0	x
54	COc1ccc(N2CCN(C(=O)CNC(=O)c3ccc(Br)o3)CC2)cc1	5%	-18%[15.4 µM]	7%	-4	x	0	-1.4%
55	Cc1ccc(C(=O)OCC(=O)NC2CC2)s1	8%	-4%	x	0	x	x	x
56	Cc1nc(SCC(=O)NC(C)(C#N)C2CC2)c2c(-c3cccs3)csc2n1 (centres undefined)	-22%	-33%	-6%	-1	8.3	-10	-0.6%
57	CCOc1ccc(C2=NNC(c3cccs3)=Nc3ccc(OC)cc32)cc1	-17%	20%	-12%	-28	5.2	-9	-3.4%
58	COc1ccc(N/C(C)=C/C(=O)c2ccccc2)cc1	-4%	-5%	3%	-8	7.0	3	-2.1%
59	C=CCC1(N(C(C)=O)c2ccccc2)CCCCC1	-15%	-2%	17%	2	-2.6	1	-0.6%
60	O=C(C1CCCN(S(=O)(=O)c2cccs2)C1)N1CCc2ccccc2C1 (centres undefined)	-16%	u	6%	-1	0.7	9	-5.4%

(list continues)
item	Molecule	gsp antag	gsp agonist	Sfp inh	CtBP-E1A blk	Menin-MLL FL inh	TRPV1 PAM	ClpP mod
61	COc1ccc(/C=C(\NC(=O)c2ccc(OC)cc2)C(=O)Nc2ccccc2C(=O)O)cc1	2%	27%	12%	-15	0.8	3	-0.3%
62	O=C1N/C(=C\c2nc3ccccc3s2)c2ccccc21	x	x	13%	x	2.9	-17	x
63	CC(C)OCCCNS(=O)(=O)c1ccc2c(c1)oc(=O)n2C	4%	-48%[inhibitor]	21%	10	3.2	x	0.5%
64	COP(=O)(OC)C(Nc1ccc(Cl)cc1)c1ccccc1 (centres undefined)	-2%	2%	23%	x	-0.9	-3	-0.1%
65	COCCNC(=O)c1ccccc1NC(=O)c1ccccc1N(C)S(=O)(=O)c1ccc(C)cc1	-11%	24%	2%	5	2.1	-12	-2.7%
66	Cc1ccc(N2C(=O)[C@@H]3[C@H](C2=O)C2c4ccccc4C=NN2[C@@H]3C(=O)c2ccc(Cl)cc2)cc1 (some centres undefined)	4%	u	2%	-1	13	-8	0.5%
67	CS(=O)(=O)N(CC(=O)N1CCN(Cc2ccccc2)CC1)c1ccccc1Br	-5%	-3%	4%	-19	-1.7	1	-3.9%
68	O=C(Cn1nc(C(F)(F)F)c2c1CCCC2)Nc1ccc2c(c1)OCO2	-3%	-33%[inhibitor]	10%	0	-1.2	5	5.1%
